Source: PubChem
V. cholerae QS = Vibrio cholerae quorum sensing activators, luminescence (AID 686977). V. cholerae quorum sensing reporter, luminescence, 6 h; higher luminescence means a stronger effect; most inactives read 0. luminescence at 50 µM unless noted, or EC50 in µM where a hit was titrated. 9,400 tested, under 10 active;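 active means light above mean plus 3 SD and confirmed in a dose series; inconclusive means above that limit without a clear retest; inactive means below it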;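 further: raw light counts without normalisation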
The depositor's hits bear a star; u = inconclusive; [ ] = dose if it differs, or a comment.

SMILES	V. cholerae QS
COCCCNC(=O)c1ccc(CS(=O)(=O)c2ccc(Br)cc2)o1	0
CN1C(CC(O)c2ccccc2)CCCC1CC(O)c1ccccc1 (stereo not drawn)	0[10 µg/mL]
CCc1nc(CNC(=O)c2cc(OC)c(OC)c(OC)c2)no1	0
CC(=O)c1ccc(OCC(O)CN2CCN(Cc3ccccc3)CC2)cc1 (stereo not drawn)	40
CCc1ccccc1S(=O)(=O)Cc1ccc(C(=O)N2CCN(c3ccccc3OC)CC2)o1	0
COC(=O)c1sc(=S)n(-c2cc(F)ccc2F)c1N	0
COc1ccc(-c2noc(Cc3ccc(Cl)cc3)n2)cc1OC	40
CCOC(=O)c1sc(Nc2ccc(C)cc2C)nc1C	0
Cc1cc(NC(=O)CSc2nc(CC(C)(C)C)nc3c2c(=O)n(C)c(=O)n3C)no1	0
Cc1oc(-c2ccc(Cl)cc2)nc1CN1CCC(C(=O)N2CCc3ccccc3C2)CC1	0
Cc1ccc(C2CC(c3ccccc3Cl)n3nc(N)nc3N2)cc1 (stereo not drawn)	u
CN1CCCC(CC2c3ccccc3Sc3ccccc32)C1 (stereo not drawn)	0[10 µg/mL]
COc1ccc(C2NC(=O)C(C)S2)cc1 (stereo not drawn)	40
COc1ccccc1N1CCN(C(=O)c2cc(-c3ccc(Br)cc3)on2)CC1	0
CCCc1nc2c(=O)n(C)c(=O)[nH]c2n1CCC	0
CCOC(=O)N1CCN(c2c(N3CC=C(c4ccccc4)CC3)c(=O)c2=O)CC1	40
O=C(NC1CCCc2ccccc21)C1CCN(C(=O)c2sccc2-n2cccc2)CC1 (stereo not drawn)	40
CCOC(=O)CCc1c(C)c2ccc(OCC)c(C)c2oc1=O	0
CC(C)(C)NC(=O)[C@@H]1C[C@@H]2CCCC[C@@H]2CN1C[C@@H](O)[C@H](Cc1ccccc1)NC(=O)[C@H](CC(N)=O)NC(=O)c1ccc2ccccc2n1	0[10 µg/mL]
O=C1C=C(c2ccccc2)OC2(CCCC2)O1	40
CC(Sc1nc(-c2ccccc2)cc(C(F)(F)F)n1)C(=O)N1CCCC1 (stereo not drawn)	40
CCOC(=O)N1CCN(c2c(NCCCN(C)c3ccccc3)c(=O)c2=O)CC1	0
N=c1n(CCOc2ccccc2)c2ccccc2n1CCN1CCOCC1	0
Cc1ccc(N=N/C(=C\O)C(=O)c2ccncc2)cc1	40
COc1ccc(C)cc1NC(=O)c1nnn(CCc2ccccc2)c1N	0
Remaining list, next part
SMILES	V. cholerae QS
CCCOc1nc2c(c(=O)n(C)c(=O)n2C)n1CCC	40
CCN1CCN(c2nc3c(c(=O)[nH]c(=O)n3C)n2CCSc2nc3ccccc3s2)CC1	0
Cc1cccc(NC(=O)c2c(F)c(F)c(F)c(F)c2F)c1	0
Cc1ccc(NC(=O)CN(C)S(=O)(=O)c2cccc3cccnc23)cc1	0
O=S(=O)(Nc1ccc(O)cc1)c1cccc2cccnc12	40
CCCCCn1c(CNC(=O)CCC)nc2ccccc21	u
CCCCCCCC(=O)NNC(=O)c1ccc([N+](=O)[O-])cc1	u
O=C(Nc1ccc2c(c1)OCCO2)c1ccc(Cl)c(S(=O)(=O)N2CCCCC2)c1	0
O=S(=O)(N[C@@H]1C[C@H]2CC[C@@H]1C2)c1cccs1	0
COc1ccc(Nc2nc(OC)nc(N3CCN(c4ccc(OC)cc4)CC3)n2)cc1	40
Cc1nc2c(C)cccn2c1C(=O)c1ccccc1	40
COc1ccc(OC)c2sc(NC(=O)c3ccc(S(=O)(=O)N4CCOCC4)cc3)nc12	0
CCOC(=O)c1cccc(NC(=O)C2CCCN(S(=O)(=O)c3c(C)nn(C)c3C)C2)c1 (stereo not drawn)	u
CN(C(=O)CSc1nnc(Cc2cccc3ccccc23)n1N)C1CCS(=O)(=O)C1 (stereo not drawn)	0
CN1C(=O)c2ccc(NC(=O)c3c(F)c(F)c(F)c(F)c3F)cc2C1=O	0
CCC(=NCC1CCCO1)c1c(O)[nH]c(=O)[nH]c1=O (stereo not drawn)	0
CC(=O)N1N=C(c2ccncc2)OC12CCCC2	40
CCOc1ccc(C2OC34CCCCC3C(C#N)(C#N)C2(C#N)C(=N)O4)cc1OC (stereo not drawn)	240
CCCNC(=O)Cc1cc(=O)[nH]c(=O)[nH]1	0
O=C(NCc1ccco1)c1nnc(Cc2ccc(Cl)cc2)o1	0
Cc1noc(C)c1C(=O)NCc1ccccc1	40
Cc1ccc2c(c1)c1c3n2CCNC3CCC1 (stereo not drawn)	40[10 µg/mL]
CC(C)c1ccc(N2C(=O)CSC23C(=O)N2CCCc4cccc3c42)cc1 (stereo not drawn)	40
CCOC(=O)N1CCC(NC(=O)Cn2cc3c(n2)CCCCC3)CC1	0
COc1cc(-c2ccc(N=Nc3ccc4c(S(=O)(=O)O)cc(S(=O)(=O)O)c(N)c4c3O)c(OC)c2)ccc1N=Nc1ccc2c(S(=O)(=O)O)cc(S(=O)(=O)O)c(N)c2c1O	0[10 µg/mL]

Entries above that have fluorine (4):
SMILES	V. cholerae QS
COC(=O)c1sc(=S)n(-c2cc(F)ccc2F)c1N	0
CC(Sc1nc(-c2ccccc2)cc(C(F)(F)F)n1)C(=O)N1CCCC1 (stereo not drawn)	40
Cc1cccc(NC(=O)c2c(F)c(F)c(F)c(F)c2F)c1	0
CN1C(=O)c2ccc(NC(=O)c3c(F)c(F)c(F)c(F)c3F)cc2C1=O	0

Continuation:
SMILES	V. cholerae QS
CCOc1ccc(S(=O)(=O)NN)cc1	0
CCOC(=O)C1=C(c2ccccc2)O/C(=C(\C(=O)OC)C(F)(F)F)S1	40
Cc1ccc(Nc2ncnc3sc(C)c(C)c23)cc1C	0
CCCCOCCCNC(=O)COc1ccccc1	280
CCOC(=O)c1c(NC(=O)CSc2nnc(CNc3ccc(F)cc3)o2)sc(C)c1C	0
Cc1nnc(SCC(=O)Nc2nc(C(C)(C)C)cs2)s1	0
O=C(CCc1n[nH]c(=O)[nH]c1=O)N1CCOCC1	0
Cn1c(=O)[nH]c(=O)c2c1nc(CN1CCN(Cc3ccccc3)CC1)n2CC(N)=O	40
Cc1cccc(Nc2ccncc2S(=O)(=O)NC(=O)NC(C)C)c1	160[10 µg/mL]
Cc1cc(-c2ccccc2)c2c3c(cn2n1)c(=O)n(C)c(=O)n3C	u
Cc1ccc(OCC(=O)NNC(=O)C2CCN(c3nccc(C)n3)CC2)cc1	0
CN1CCC[C@@H]1CCO[C@](C)(c1ccccc1)c1ccc(Cl)cc1	0[10 µg/mL]
CNC(C)CCC=C(C)C (stereo not drawn)	40[10 µg/mL]
O=c1c2ccccc2sn1-c1ccc(S(=O)(=O)N2CCCC2)cc1	0
CN(Cc1ccccc1)C(=O)CCS(=O)(=O)c1ccc2c(c1)n(C)c(=O)c(=O)n2C	0
O=C(C1CCCN1S(=O)(=O)c1cccc2cccnc12)N1CCc2ccccc21 (stereo not drawn)	0
CC(C(=O)O)c1ccc(C(=O)c2ccccc2)s1 (stereo not drawn)	0[10 µg/mL]
CCCc1nc(SCC(=O)NCc2ccco2)c2c(=O)n(C)c(=O)n(C)c2n1	0
COc1ccc(OCC(=O)Nc2cc(-c3nn4c(C)nnc4s3)ccc2C)cc1	0
COc1ccc2c(c1)c(CC(=O)O)c(C)n2C(=O)c1ccc(Cl)cc1	0[10 µg/mL]
CN(Cc1ccccc1)S(=O)(=O)c1cccs1	0
CCc1ccc(NS(=O)(=O)c2cccs2)cc1	40
COc1ccc(N2C(=O)CC(Sc3nccc(C)n3)C2=O)cc1 (stereo not drawn)	40
CCN1C(=O)c2cccc3c(S(=O)(=O)NCc4ccccn4)ccc1c23	0
O=C(O)C1CC=CCC1C(=O)Nc1cccc(F)c1 (stereo not drawn)	0

Among those listed so far, these have a COOH group:
SMILES	V. cholerae QS
CC(C(=O)O)c1ccc(C(=O)c2ccccc2)s1 (stereo not drawn)	0[10 µg/mL]
COc1ccc2c(c1)c(CC(=O)O)c(C)n2C(=O)c1ccc(Cl)cc1	0[10 µg/mL]
O=C(O)C1CC=CCC1C(=O)Nc1cccc(F)c1 (stereo not drawn)	0

(continued)
SMILES	V. cholerae QS
CCN(CC)CCCC(C)Nc1ccnc2cc(Cl)ccc12 (stereo not drawn)	0[10 µg/mL]
Nc1ccccc1-c1nnc(SCc2ccccc2Cl)[nH]c1=O	40
CCOC(=O)c1nnn(-c2nonc2N)c1-c1cccc2ccccc12	0
CN(C)CC/C=C1\c2ccccc2COc2ccccc21	0[10 µg/mL]
CCOC(=O)c1nc(Nc2ccc(C)cc2)c2ccccc2n1	u
C[C@@H]1CC[C@@]2(OC1)O[C@H]1C[C@H]3[C@@H]4CC[C@H]5C[C@@H](O)CC[C@]5(C)[C@H]4CC(=O)[C@]3(C)[C@H]1[C@@H]2C	u
C=CCc1ccccc1OCC(O)CN1CCN(c2ccc(OC)cc2)CC1 (stereo not drawn)	0
O=C(NCc1ccc2c(c1)OCO2)C1CCC(CNS(=O)(=O)c2cccc3nsnc23)CC1 (stereo not drawn)	u
CCCCCCSc1nc2c(c(=O)[nH]c(=O)n2C)n1C	0
O=C(NNC1=C(C(=O)C(F)(F)F)CCC1)c1cccc(Cl)c1	200
COc1ccccc1NC(=O)c1ccc(S(=O)(=O)N(C)C)cc1	40
COc1cc(/C=N/N(C)c2ccccc2)cc(Cl)c1O	0
N#Cc1ccsc1NC(=O)CSc1nnc(-c2ccccc2)o1	40
Cc1[nH]nc2c1C(=O)CC(C)(C)C2	160
Cc1ccc2ncc(NC(=O)c3ccc(F)cc3)c(=O)n2c1	0
Cc1cnc(NC(=O)c2cc3c(C)nn(-c4ccccc4)c3s2)s1	40
O=C(CNC(=O)c1ccco1)NCCCc1ccccc1	40
COCc1nnc(NC(=O)c2ccc(S(=O)(=O)N(C)c3ccccc3)cc2)o1	0
Cc1cc(C)c(C#N)c(Oc2ccc(O)cc2)n1	40
COc1ccc(-c2noc(CN(C(=O)C(C)(C)C)C(C)C)n2)cc1	0
CCOc1cc(NC(=S)NCC(C)C)c(OCC)cc1NC(=O)c1cccs1	0
CCc1c(C#N)c(SCCC(=O)Nc2ccc(F)cc2)nc2c1C(=O)CC(C)(C)C2	80
Cc1nn(C)c(C)c1S(=O)(=O)N1CCC(C(=O)Nc2ccc3c(c2)OCCO3)CC1	0
COc1ccc(C)cc1S(=O)(=O)NCCC1=CCCCC1	0
CCOc1ccc(C2CC(c3ccc(CC)cc3)n3nc(N)nc3N2)cc1 (stereo not drawn)	0

Reprinted from the part before: four entries, then new ones.
SMILES	V. cholerae QS
CCc1c(C#N)c(SCCC(=O)Nc2ccc(F)cc2)nc2c1C(=O)CC(C)(C)C2	80
Cc1nn(C)c(C)c1S(=O)(=O)N1CCC(C(=O)Nc2ccc3c(c2)OCCO3)CC1	0
COc1ccc(C)cc1S(=O)(=O)NCCC1=CCCCC1	0
CCOc1ccc(C2CC(c3ccc(CC)cc3)n3nc(N)nc3N2)cc1 (stereo not drawn)	0
CCN(CC(=O)Nc1ccc2c(c1)OC(F)(F)O2)Cc1nc2ccccc2c(=O)[nH]1	0
COc1cc(C(=O)NCc2ccc(OCCN(C)C)cc2)cc(OC)c1OC	200[10 µg/mL]
CC(=O)NCc1nc2ccccc2n1Cc1ccccc1C	0
CCc1nnc(NC(=O)c2ccc(N3C(=O)CCC3=O)cc2)s1	0
CCCOc1ccc(C(=O)Nc2cc(-c3nn4c(C)nnc4s3)ccc2C)cc1	0
NS(=O)(=O)c1cc2c(cc1C(F)(F)F)NCNS2(=O)=O	40[10 µg/mL]
CCn1c(=O)cc(OCC(=O)N(C)c2ccccc2F)c2ccccc21	0
COC(=O)c1ccc(Cc2ccc(C(=O)OC)o2)o1	40
O=C(NCCc1ccc(Cl)cc1)C1CCCN(S(=O)(=O)c2cnc[nH]2)C1 (stereo not drawn)	0
CCOc1ccc(N(CC(=O)NC(C)(C)C)C(=O)c2ccco2)cc1	40
CCOC(=O)C1=C(N)N(c2ccccc2)C(=O)C1	0
CN1C2CCC1CC(O)C2 (stereo not drawn)	0[10 µg/mL]
O=S(=O)(Nc1ccc(N2CCOCC2)cc1)c1ccccc1	0
Cc1ccc(NC(=O)CSc2nnc(Cc3cccn3C)n2-c2ccc(F)cc2)c(C)c1	40
CCC1(CC)C(=O)C=CNC1=O	0[10 µg/mL]
Cn1c2c(c(=O)n(C)c1=O)C(c1cccc([N+](=O)[O-])c1)Nc1ccccc1O2 (stereo not drawn)	0
N#Cc1c(N2CCOCC2)nc(N2CCCCC2)c2c1CCN(C1CCCCC1)C2	0
Cn1c(/C=N/NC(=O)c2ccccc2Br)nc2ccccc21	0
CCN1C(=O)C2C(c3cccc(F)c3)NC(C)(C(=O)OC)C2C1=O (stereo not drawn)	0
CC(=O)N1CCN=C1SCc1ccc(C)cc1	0
O=C(CCOc1ccccc1)NCc1ccccc1	40
CN(C)CCCOc1ccc(Cl)cc1Br	40
CCO/C(C)=C1\C(=O)N(CC)c2ccccc21	280
CC(NCC1(N2CCOCC2)CCCCC1)C(=O)N1CCc2ccccc21 (stereo not drawn)	0
CCc1ccc(N2C(=O)Cc3c2nc(N)c(C#N)c3N)cc1	40
New compounds follow
SMILES	V. cholerae QS
CC1CCN(C(C(=O)Nc2ccc3c(c2)OCO3)c2ccccc2)CC1 (stereo not drawn)	0
COc1ccc2c(c1)cc1n2CCN=C1NCCO	40
CC12C(=O)N(c3ccccn3)C(=O)C1C1C=CC2C1 (stereo not drawn)	0
CCOC(=O)N1CCN(C(=O)CSCC(=O)Nc2nc(-c3ccc(C)cc3)cs2)CC1	40
Nc1ccc(S(=O)(=O)c2ccc(N)cc2)cc1	40[10 µg/mL]
O=C1CC(c2ccccc2)CC2=C1C(c1ccccn1)Nc1ccccc1N2 (stereo not drawn)	0
C[N+]1(C)CCOC(O)(c2ccc(-c3ccc(C4(O)C[N+](C)(C)CCO4)cc3)cc2)C1 (stereo not drawn)	0[10 µg/mL]
Cc1oc(-c2ccccc2F)nc1CS(=O)(=O)CC(=O)NCCCN1CCc2ccccc2C1	0
C=C1C(=O)O[C@@H]2[C@H]3O[C@]3(C)CC/C=C(\C)CC[C@@H]12	200[10 µg/mL]
CCOC(=O)N1CCN(C(=O)CN(Cc2ccccc2)S(=O)(=O)c2ccc(OC)c(Cl)c2)CC1	280
N#Cc1c(SCc2cccc(Cl)c2)sc(C(=O)c2ccccc2)c1N	0
CCOC(=O)c1[nH]c(C)c(C(=O)N2CCOCC2)c1C	0

Some of the compounds tested; rates above refer to the full screens.
